# Screening data as filed in PubChem BioAssay.
# Mtb H37Rv = Mycobacterium tuberculosis H37Rv growth inhibition, cell based, confirmatory dose response (AID 1949); most inactive calls were filed without a number and no value below 0 was filed; one-dose inhibition, % at 10 µg/mL; IC50 in µg/mL for titrated hits; 100,000 compounds, 1.6% hits;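 active = confirmed in a dose series; inconclusive = about 50% or more but not retested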;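 also: bacteria grown 7 days with compound before Alamar blue readout; 0% = untreated bacteria and 100% = reference antibiotic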
# Active calls of the source: *; i = inactive; ? = inconclusive.
No.	Structure	Mtb H37Rv
1	O=C(Nc1c(F)c(F)c(F)c(F)c1F)c1cccc(Cn2cc(Cl)cn2)c1	8.1%
2	COc1ccc(C(=O)c2ccc(N3CCOCC3)c([N+](=O)[O-])c2)c2ccccc12	6.6%
3	COc1ccc(Cl)cc1NC(=S)N1c2ccc(F)cc2CCC1C (stereo not drawn)	i
4	C=CCNC(=O)C1CC(=O)N(c2ccc(OCC(=O)Nc3c(C)cccc3CC)cc2)C1 (stereo not drawn)	i
5	CCCC(=O)c1cc(F)c(N2CCNCC2)cc1C	0.6%
6	COc1ccc(C(=O)Nc2ccc(C(=O)NCCc3ccccc3)cc2)cc1	i
7	C=CCn1c(SCC(=O)c2ccccc2)nc2ccccc2c1=O	i
8	COC(=O)COc1ccc(NC(=O)c2ccccc2F)cc1	0.65µg/mL*
9	O=C1OC(C(=O)Nc2cc(C(F)(F)F)ccc2Cl)Cc2ccccc21 (stereo not drawn)	i
10	CCOc1ccccc1NC(=O)c1ccccc1-c1ccccc1	?
11	Cn1nnnc1SCCNCc1ccccc1OCc1ccc(F)cc1	i
12	CCOC(=O)C1C(=O)OC(C)(C)C1C(=O)OCC (stereo not drawn)	1.1%
13	Cc1ccc(C)c(OCC(=O)N2CCCC2)c1	1.0%
14	CCCn1nnc(NC(=O)C(c2ccccc2)c2ccccc2)n1	0.5%
15	CSc1ccc(/C=C/c2noc(-c3ccccc3O)n2)cc1	5.3%
16	CC(NC(=O)CSc1nnc(-c2ccc(Br)cc2)n1C)c1ccccc1 (stereo not drawn)	i
17	Cc1cccc(NC(=O)c2ccc(COc3c(F)c(F)cc(F)c3F)cc2)c1C	i
18	Cc1ccc(C(=O)N2c3ccc(F)cc3CCC2C)o1 (stereo not drawn)	i
19	CCOC(=O)CSc1nnc(-c2cccnc2)n1-c1ccccc1	i
20	CCOC(=O)c1c(NC(=O)CSc2nnc3ccc4ccccc4n23)sc2c1CCCC2	0.2%
21	CC1(C)C(=O)C2(C(=O)N3CCc4ccccc43)CCC1C2 (stereo not drawn)	0.8%
22	COc1ccc(NC(=O)Nc2ccc(OCc3ccccc3)cc2)cc1	i
23	CC(=O)Oc1ccc(C2C(C(=O)OCc3ccccc3)=C(C)N=C3SCCC(=O)N32)cc1 (stereo not drawn)	i
24	CC1CCN(C(=S)c2ccccc2O)CC1	i
25	Cc1cccc(C(=O)Nc2nc(-c3ccc(F)cc3F)cs2)c1	i
26	CCOC(=O)COc1ccc(-c2nnn(CC(=O)Nc3ccccc3)n2)cc1	?
27	CCCC(C)C(=O)n1nnc2ccccc21 (stereo not drawn)	i
28	COc1ccc(-c2ccc(S(=O)(=O)Nc3ccc(Br)cc3F)cc2)cc1	i
29	CN1CCN(S(=O)C23CC4CC(CC(C4)C2)C3)CC1 (stereo not drawn)	i
30	COC(=O)Cc1c(C)c2ccc(OCC(=O)Nc3cc(C)ccc3C)c(C)c2oc1=O	2.5%

# Four entries from above, field by field.
(1) O=C(Nc1c(F)c(F)c(F)c(F)c1F)c1cccc(Cn2cc(Cl)cn2)c1
  Mtb H37Rv: 8.1%

(2) COc1ccc(C(=O)c2ccc(N3CCOCC3)c([N+](=O)[O-])c2)c2ccccc12
  Mtb H37Rv: 6.6%

(3) COc1ccc(Cl)cc1NC(=S)N1c2ccc(F)cc2CCC1C (stereo not drawn)
  Mtb H37Rv: i

(4) C=CCNC(=O)C1CC(=O)N(c2ccc(OCC(=O)Nc3c(C)cccc3CC)cc2)C1 (stereo not drawn)
  Mtb H37Rv: i

# Structural class, the compounds so far containing a Cl atom
No.	Structure	Mtb H37Rv
1	O=C(Nc1c(F)c(F)c(F)c(F)c1F)c1cccc(Cn2cc(Cl)cn2)c1	8.1%
3	COc1ccc(Cl)cc1NC(=S)N1c2ccc(F)cc2CCC1C (stereo not drawn)	i
9	O=C1OC(C(=O)Nc2cc(C(F)(F)F)ccc2Cl)Cc2ccccc21 (stereo not drawn)	i

# Further results:
No.	Structure	Mtb H37Rv
31	COc1cc(CNCc2ccccc2)ccc1OCCO	i
32	CCOC(=O)CN(c1ccc(F)c(Cl)c1)S(C)(=O)=O	i
33	O=C(NCCCN1CCOCC1)C(Sc1ccccc1)c1ccccc1 (stereo not drawn)	i
34	O=C(Nc1ccc(F)cc1F)NC1CCCCC1	i
35	CCN1C(=O)c2cccc3c(NC(=O)c4ccc(F)cc4)ccc1c23	4.7%
36	O=C(CSC1CC(=O)N(c2ccc(F)cc2)C1=O)Nc1ccc(Br)cc1 (stereo not drawn)	i
37	O=[N+]([O-])c1cccc(Cl)c1CSc1ccccn1	i
38	CCOCCC(=O)N(Cc1ccccc1)c1ccccn1	i
39	NS(=O)(=O)c1ccc(NC(=O)c2cc(Cl)ccc2Cl)cc1	i
40	CN1CCN(c2ccc(NC(=O)c3cccc4c(Cl)cccc34)cc2)CC1	7.0%
41	CCOC(=O)c1c(NC(=O)Cc2cccs2)sc(C(=O)NC2CCCC2)c1C	i
42	CCc1ccc(OC(=O)c2ccccc2Br)cc1	48.2%
43	NS(=O)(=O)c1ccc(NC(=O)c2cccs2)cc1	i
44	C=CCn1c(SCC(=O)c2ccc(OC)cc2)nnc1C(C)NC(=O)c1cccs1 (stereo not drawn)	i
45	CN1CCc2c(sc3ncc4c(=O)[nH]c(=O)[nH]c4c23)C1	i
46	COc1ccc(OC)c(NC(=O)CN(C2CCCCC2)S(=O)(=O)c2ccc(Cl)cc2)c1	4.7%
47	COc1ccc(S(=O)(=O)Nc2cccc(-c3cn4cccc(C)c4n3)c2)cc1	i
48	CCCCNS(=O)(=O)c1ccc(NC(=O)c2sc3ccccc3c2Cl)cc1	i
49	O=C(CSc1nc2ccccc2[nH]1)Nc1ccc(S(=O)(=O)Nc2ncccn2)cc1	i
50	CCOC(=O)C1=C(C)N(C)C(=S)NC1c1ccccc1[N+](=O)[O-] (stereo not drawn)	3.0%
51	CCOc1ccccc1OCCN1CCC(Cc2ccccc2)CC1	i
52	Cc1cc(=O)oc2cc(NC(=S)NCc3cccs3)ccc12	i
53	O=C(COc1ccc(Cl)cc1Cl)Nc1ccc(S(=O)(=O)Nc2nccs2)cc1	15.1%
54	COc1ccc(OC(C)C(=O)Nc2cc(C(F)(F)F)ccc2Cl)cc1 (stereo not drawn)	0.5%
55	O=C1CCCN1c1ccc(S(=O)(=O)Nc2ccc3c(c2)OCCO3)cc1	0.8%
56	COc1ccc(-n2c(CCc3ccccc3)nnc2SCC(=O)NCC2CCCO2)cc1 (stereo not drawn)	i
57	CS(=O)(=O)N(CC(=O)NCc1ccc(Cl)cc1Cl)c1cc(Cl)ccc1Cl	i
58	O=C(NCC1(c2ccccc2)CCOCC1)c1ccc(Br)o1	i
59	CCOC(=O)c1c(NC(=O)CSc2nnc(-c3ccccc3)o2)sc2c1CCC2	i
60	Cc1ccc(-c2csc3nnc(SCC(=O)NCCc4ccccc4)n23)cc1	i

# Further structures
No.	Structure	Mtb H37Rv
61	CN(c1cccc(NC(=O)CN(c2ccc(Cl)cc2)S(=O)(=O)c2ccccc2)c1)S(C)(=O)=O	i
62	CC(C(=O)NCc1ccccc1)(c1ccccc1)c1ccccc1	2.2%
63	C1CCC2(C1)OCC(CN1CCOCC1)O2 (stereo not drawn)	i
64	Cn1c(Cc2cccs2)nnc1SCC(=O)Nc1ccc(Br)cc1	i
65	Cc1ccc(C(=O)CSc2cc(C)c3ccccc3n2)c(C)c1	18.8%
66	Cc1sc(NC(=O)C2C3C=CC(C3)C2C(=O)O)c(C#N)c1C (stereo not drawn)	i
67	COCCNC(=O)c1ccccc1NS(=O)(=O)c1ccccc1	i
68	CCOc1ccc(NS(=O)(=O)N(C)C)cc1	i
69	Cc1cccc(C(=O)NCCC(c2ccccc2)c2ccccc2)c1	4.2%
70	O=[N+]([O-])c1ccc(NCc2ccco2)c2ncccc12	2.5%
71	CC(C)c1cccc(C(C)C)c1NC(=O)c1cncc(Br)c1	5.2%
72	CCOc1ccc(OCC(=O)Nc2ccccc2C(F)(F)F)cc1	14.8%
73	CNC(=O)c1[nH]cnc1C(=O)Nc1ccc(OC)cc1	i
74	c1ccc2cc(OCCCn3ccnc3)ccc2c1	10.3µg/mL*
75	CCCC(=O)Nc1ccccc1NC(=O)c1ccccc1Br	i
76	CC(=O)Oc1ccc(C2Nc3ccccc3NC3=C2C(=O)CC(c2cccs2)C3)cc1 (stereo not drawn)	4.1%
77	Cc1cc(Br)ccc1OCCn1cnc2ccccc2c1=O	i
78	COc1c(Cl)cc(C=O)cc1Cl	i
79	Cc1cc(C(F)F)n2ncc(C(=O)NC3CCCCCC3)c2n1	33.2%
80	CCn1ncc(CNC(=O)CCSc2nc(-c3ccc(OC)cc3)cc(C(F)(F)F)n2)c1C	i
81	C=CCNC(=O)c1c(NC(=O)c2ccc(OCC=C)cc2)sc2c1CCCC2	i
82	CC(Sc1nc2ccccc2s1)C(=O)NNC(=S)NCc1ccco1 (stereo not drawn)	i
83	O=S(=O)(c1ccc(Cl)c(C(F)(F)F)c1)N1CCCCC1	i
84	COc1ccc(OC)c(CN2CCN(c3cccc(C(F)(F)F)c3)CC2)c1	6.1%
85	Cc1ccc(C(=O)c2ccc(Br)cc2)cc1S(=O)(=O)N1CCOCC1	0.8%
86	CCN(CC)c1ccc(C(=O)NNC(=S)Nc2ccc3c(c2)OCO3)cc1	i
87	C=C(C)Cn1c(SCC(=O)N2CCCc3ccccc32)nc2sc3c(c2c1=O)CCC3	9.8%
88	O=C(Nc1ccccc1C(=O)OCc1c(F)cccc1Cl)c1ccco1	i
89	COC(=O)C1=CN(C)C=C(C(=O)OC)C1c1cccc(O)c1	i
90	COC(=O)c1cc(C(=O)N2CC(C)CC(C)C2)cc([N+](=O)[O-])c1 (stereo not drawn)	i

# Values in list order from the entries so far.
# Nos. 85 to 89 in Mtb H37Rv: 0.8%, i, 9.8%, i, i

# (further entries)
No.	Structure	Mtb H37Rv
91	O=C(Oc1ccc(N2C(=O)CCC2=O)cc1)c1ccco1	1.2%
92	COC(=O)c1ccc(Cl)cc1NC(=O)c1cc(Br)ccc1Cl	i
93	O=c1c2ccccc2ncn1CCOc1ccc2ccccc2c1Br	1.0%
94	O=c1oc(/C=C/c2ccco2)nc2sc3c(c12)CCCC3	i
95	C=Cc1ccc(COc2ccc3c(C)cc(=O)oc3c2C)cc1	1.5%
96	C#CCN1C(=O)C(O)(CC(=O)c2cc(OC)ccc2OC)c2ccccc21 (stereo not drawn)	i
97	O=C(c1cccc(S(=O)(=O)N2CCCCCC2)c1)N1CCN(c2ccccc2F)CC1	i
98	COc1ccc(NC(C#N)c2ccccc2OCc2ccccc2)cc1 (stereo not drawn)	i
99	Cc1cc(C)cc(C(=O)Nc2ccc([N+](=O)[O-])cc2)c1	22.2%
100	O=C(Nc1cccnc1)Nc1cccc(Cl)c1	i
101	COCCNC(=S)NC(=O)C1CCCCC1	i
102	O=C(COc1ccc(F)cc1)Nc1nc(-c2ccccc2)cs1	i
103	COc1cc(C(=O)NCc2cccnc2)c([N+](=O)[O-])cc1OC	i
104	Cc1ccc(-c2csc3ncn(Cc4ccccc4F)c(=O)c23)cc1	i
105	COc1cc(-c2nnc(SCC(=O)c3ccc(Cl)cc3)n2-c2ccccc2)cc(OC)c1OC	i
106	CC(C)(C)c1ccc(OCC(=O)Nc2ccc(-c3nnc(-c4ccccc4)o3)cc2)cc1	i
107	O=C(COc1ccccc1Cl)Nc1nc(-c2ccc(Cl)cc2)cs1	i
108	Cc1ccc(S(=O)(=O)N(CC(=O)Nc2c(C)cc(C)cc2C)Cc2cccc(C)c2)cc1	2.5%
109	COc1ccc(CCNC(=O)C2CCN(C(=O)c3ccc(F)cc3)CC2)cc1	i
110	COc1ccc(CNC(=O)c2cccc(NC(=O)c3ccccc3)c2)cc1	11.3%
111	CCOC(=O)C1CCN(C(=O)CCc2ccc(S(=O)(=O)NCC(C)C)cc2)CC1	i
112	CCN(CC)C(=O)C(=O)Nc1ccc(Br)cc1F	i
113	O=C(NC(=S)Nc1ccc(OCC(=O)N2CCOCC2)cc1)c1cncc(Br)c1	i
114	Cc1cc(C)nc(NC(=O)C(C)Oc2ccc(Cl)cc2Cl)c1 (stereo not drawn)	i
115	O=C(O)CCCC(=O)Nc1cccc(NC(=O)c2ccco2)c1	i
116	Cn1cnc2scc(-c3ccc(Cl)cc3)c2c1=O	i
117	Cc1ccc(-c2cc(-c3ccccc3)c(C#N)c(S(=O)Cc3ccccc3)n2)cc1 (stereo not drawn)	i
118	CC(=O)Nc1ccc(NC(=O)C2CC(=O)N(C3CCCCC3)C2)cc1 (stereo not drawn)	6.8%
119	Cc1ccc([N+](=O)[O-])cc1NC(=O)c1ccc(CSc2ccccc2)cc1	i
120	CN1CCC(NC(=O)c2cccc(C(F)(F)F)c2)CC1	i

# More compounds.
No.	Structure	Mtb H37Rv
121	O=C(O)CCC(=O)NNC(=O)CCc1ccccc1	i
122	CC1(C)CC(=O)C2=C(C1)Nc1ccccc1N(C(=O)Cc1ccccc1)C2c1cccc(F)c1 (stereo not drawn)	i
123	O=C(CN(c1ccccc1)S(=O)(=O)c1ccc(Cl)cc1)Nc1ccccc1C(=O)N1CCCC1	5.9%
124	O=C(Nc1ccncc1)C1COc2ccccc2O1 (stereo not drawn)	i
125	Cc1cc(C)nc(N/C(=N/S(=O)(=O)c2ccc([N+](=O)[O-])cc2)Nc2ccccc2C(F)(F)F)n1	i
126	CCc1ccccc1N(CC(=O)Nc1ccc(NC(C)=O)cc1)S(C)(=O)=O	i
127	COc1ccc(Nc2nc(N)nc(CN3CCC(Cc4ccccc4)CC3)n2)cc1	?
128	COC(=O)CCC(=O)Nc1ccc(OC)c(Cl)c1	i
129	NC(=O)CSc1nc(-c2ccccc2)nc2sc3c(c12)CCCC3	i
130	O=C(CNC(=O)C1CCCCC1)Nc1ccc(Cl)cc1	i
131	COc1ccc(N2CCN(CCCNC(=O)Nc3ccccc3)CC2)cc1	i
132	O=C(CC(NCC1CCCO1)C(=O)O)Nc1ccc(Cl)cc1 (stereo not drawn)	i
133	COc1cc(C=O)ccc1Oc1nc(N2CCCCC2)nc(N2CCCCC2)n1	1.7%
134	CN1CCN(c2ccccc2NC(=O)c2cc(I)ccc2Cl)CC1	i
135	CC(NC(=O)Nc1ccccc1)c1ccccc1 (stereo not drawn)	i

# Not all compounds are listed; count on the stated rates, not on these rows.
